Assay outcomes: PubChem, National Center for Advancing Translational Sciences (NCATS)
SARS PLP yeast: SARS-CoV PLP inhibition in yeast. S. cerevisiae expressing SARS-CoV PLpro, growth rescue; control for the full effect not named in the record. Potency, µM (doses to about 32.9 µM), for inactives: at the top dose activity, positive = growth rescue. 0.19% of 330,000 active. AID 485353; active means well fitted rising curve with a large enough effect; inconclusive means small, poorly fitted or top-dose-only effect; inactive means no such curve, though single readings can be large or run the other way; note: 0% is about no effect; nearly all actives have a fitted effect of over 55% in size; growth read by luminescence after 48 h
Cruzain inh noDet: blocks cruzain activity in detergent-free assay; purified cruzain, Z-FR-AMC fluorescence, no detergent; Potency, µM, for the others: max response, negative = inhibition, most hits filed as inhibitors; 2.3% of 200,000 active; AID 1476;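 note: plate controls were enzyme without inhibitor for no effect and buffer without enzyme for full effect; nearly all actives have a fitted effect of over 40% in size; top concentration of the series not given in the record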
Target sequence (P25779 123-467 limits assumed): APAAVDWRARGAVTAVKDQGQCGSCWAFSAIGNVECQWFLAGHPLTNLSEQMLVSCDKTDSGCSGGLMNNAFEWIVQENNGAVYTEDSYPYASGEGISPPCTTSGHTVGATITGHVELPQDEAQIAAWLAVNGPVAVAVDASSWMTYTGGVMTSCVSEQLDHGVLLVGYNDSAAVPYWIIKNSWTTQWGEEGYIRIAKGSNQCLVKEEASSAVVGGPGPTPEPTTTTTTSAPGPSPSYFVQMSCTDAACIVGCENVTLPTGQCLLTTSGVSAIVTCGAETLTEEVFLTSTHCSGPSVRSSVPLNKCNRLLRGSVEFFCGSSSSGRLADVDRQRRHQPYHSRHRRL
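Detergent-free condition (0.00005% Triton X-100) in acetate buffer pH 5.5 with DTT. 1.5 nM enzyme and compound were pre-mixed 15 min, then 2 uM Z-FR-AMC substrate added; reaction progress from fluorescence change between first and third reads (60 s).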
NS1 inh: influenza NS1 inhibition; S. cerevisiae slowed by influenza A NS1, growth recovery by OD600; Potency, µM (series often up to 46.1 µM), inactives show at the top dose activity, positive = more growth; 0.4% of 270,000 active; AID 2326; active means well fitted rising curve with a large enough effect; inconclusive means small, poorly fitted or top-dose-only effect; inactive means no such curve, though single readings can be large or run the other way; note: nearly all actives have a fitted effect of over 50% in size
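In this qHTS, NS1 from influenza A is expressed in budding yeast, where it slows growth. Cells are switched from glucose to 2% galactose medium (pH 6.0, -URA), treated with compound, and growth recovery is read at OD600.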
LASV entry inh: inhibitors of Lassa virus binding or cell entry | Lassa virus pseudotype entry inhibition, cell reporter; control for the full effect not named in the record | Potency, µM (series often up to 37.9 µM), inactives show top-dose activity change, negative = inhibition, actives largely listed as inhibitors | 1.2% of 300,000 active; active means well fitted inhibition curve with a large enough effect; inconclusive means small, poorly fitted or top-dose-only effect, or effect the other way; inactive means flat fitted curve, though single readings scatter; tested in HEK293 cells; note: % is set by controls: 0 for no effect and ±100 for the full control effect; nearly all actives have a fitted effect of over 50% in size; luciferase read-out
Cruzain Triton: blocks cruzain activity in presence of Triton detergent. P25779. purified cruzain, Z-FR-AMC fluorescence, 0.01% Triton. Potency, µM, without a hit: max response, negative = inhibition, most hits filed as inhibitors. 0.43% of 200,000 active. AID 1478;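 note: plate controls were neutral wells for no effect and buffer without enzyme for full effect; nearly all actives have a fitted effect of over 40% in size; top concentration of the series not given in the record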
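Steps: dispense cruzain (1.5 nM final) in acetate buffer pH 5.5 with DTT and 0.01% Triton X-100; pin-transfer compounds; incubate 15 min RT; add Z-FR-AMC (2 uM final); read fluorescence every 30 s, using the 60 s intensity change.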
RE007 growth inh: less growth of the S. pombe RE007 Vpr strain; 0.21% of 360,000 active; AID 651644; Potency, µM (series often up to 92.2 µM), without a hit: at the top dose activity change, negative = less growth; S. pombe RE007 Vpr strain, BacTiter-Glo ATP luminescence, 24 h; control for the full effect not named in the record; active = well fitted falling curve with a large enough effect; inconclusive = small, poorly fitted or top-dose-only effect; inactive = no such curve, though single readings can be large or run the other way;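 note: % is set by controls: 0 for no effect and ±100 for the full control effect; nearly all actives have a fitted effect of over 50% in size; the assay follows cell death caused by Vpr and the record does not say whether a fall means rescue or toxicity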
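Fission yeast strain RE007, carrying one chromosomally integrated HIV-1 vpr copy, was seeded at OD 0.01 in PMG+AL medium with 23 nL pinned compound. After 24 h at 30 °C and 99% humidity, viability was read by BacTiter-Glo luminescence.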
Marburg entry inh: inhibitors of Marburg virus binding or cell entry. Marburg virus pseudotyped entry inhibition, cell reporter; control for the full effect not named in the record; about a third of the inactives were read at about 46 µM. Potency, µM (top dose mostly 37.8 µM), without a hit: at the top dose activity change, negative = inhibition, actives largely listed as inhibitors. 1.8% of 300,000 active; active = well fitted inhibition curve with a large enough effect; inconclusive = small, poorly fitted or top-dose-only effect, or effect the other way; inactive = flat fitted curve, though single readings scatter; tested in HEK293 cells; about a fifth of its hits are not listed in these tables; note: % is set by controls: 0 for no effect and ±100 for the full control effect; luciferase read-out
2A StopGo: lowers the luciferase signal of an FMDV 2A StopGo reporter. human cells with a luciferase reporter of 2A StopGo recoding; control for the full effect not named in the record. Potency, µM (top dose mostly 57.9 µM), without a hit: top-dose signal change, negative = less light. 1.2% of 410,000 active. AID 1159524; active = well fitted falling curve with a large enough effect; inconclusive = small, poorly fitted or top-dose-only effect; inactive = no such curve, though single readings can be large or run the other way; tested in HEK293T cells; note: % is set by controls: 0 for no effect and ±100 for the full control effect; nearly all actives have a fitted effect of over 45% in size; luciferase light after 4 h
An asterisk follows results filed as active; u = inconclusive; x = not tested or not shown; & = joins results of further samples; [ ] = another dose, or the depositor's remark. Unless noted, calls come from the whole dose curve; as a rule, active = well fitted curve in the direction sought with a large enough effect; inconclusive = small, poorly fitted or top-dose-only effect, or another doubt; inactive = no such curve, though single readings can be large; an effect the other way counts as inactive or inconclusive. Potency is the fitted concentration of half-maximal effect.

Results follow in this order: SARS PLP yeast	Cruzain inh noDet	NS1 inh	LASV entry inh	Cruzain Triton	RE007 growth inh	Marburg entry inh	2A StopGo
- COc1ccc(OC)c(NC(=O)Cn2ncc3c2-c2ccccc2OC3)c1
→ x	-12.1%	x	x	-7.8%	x	7.4%[46.1 µM]	-13.4%
- O=C(CCCN1C(=O)c2ccccc2C1=O)NCCc1ccc(OC(F)F)cc1
→ -1.0%	x	-44.5%	6.9%	x	1.4%	1.6%[46.1 µM]	-1.1%
- O=C(CSc1nc(CCC2CCCC2)nc2ccccc12)NCc1ccc2c(c1)OCO2
→ -1.1%	13.6%	9.5%	u	0.6%	10.5%	12.6µM*	-3.5%
- O=C(CNC(=O)c1nn(Cc2ccccc2)c(=O)c2ccccc12)Nc1ccc(F)c(F)c1F
→ -3.0%	x	x	-24.1%[46.1 µM]	x	42.1%	-16.2%[46.1 µM]	0.0%
- N#CC1=C(S)N(c2ccccc2)C(c2cccs2)NC1=O (stereo not given)
→ 3.1%	-11.3%	u	1.0%	-2.4%	-12.5%	-5.6%	x
- COc1ccc(NC(=S)NCCc2c[nH]c3ccccc23)c(OC)c1
→ 15.5%	-4.1%	-8.5%	u	-8.7%	10.2%	3.4%	20.0%
- Cn1c(SCc2ccccn2)nnc1-c1ccccc1
→ -0.8%	x	7.6%	5.5%[46.1 µM]	x	10.8%	19.7%[46.1 µM]	17.6%
- O=C(O)CC(NS(=O)(=O)Cc1ccccc1)c1cccc([N+](=O)[O-])c1 (stereo not given)
→ -3.1%	x	3.6%	5.1%[46.1 µM]	x	-3.2%	12.2%[46.1 µM]	-1.4%
- CCOCCc1nn2c(=O)cc(COC(=O)c3ccccc3NC(=O)C3CCCCC3)nc2s1
→ x	9.6%	x	10.9%[46.1 µM]	-0.9%	x	x	u
- CCCc1nc2ccccc2c(=O)n1/N=C/c1ccc(O)cc1O
→ 13.7%	-6.9%	-37.8%	-18.8%	-7.9%	-1.3%	-10.2%	u
- Cc1ccc(C(=O)NCCc2ccc(S(N)(=O)=O)cc2)o1
→ -0.5%	x	5.4%	13.7%	x	-2.4%	-5.3%	-11.0%
- COc1ccc(C(=O)OCCN=C2NS(=O)(=O)c3ccccc32)cc1OC
→ -4.7%	-10.0%	-1.3%	-17.5%[14.3 µM]	0.1%	5.5%	-22.9%	-23.9%
- CCOC(=O)N1CCN(C(=O)CS(=O)(=O)Cc2nc(-c3cccc(OC)c3)oc2C)CC1
→ 12.1%	x	6.3%	x	x	9.6%	x	-12.8%
- O=C(CNS(=O)(=O)c1ccc(Br)cc1)Nc1ccc2c(c1)OCCO2
→ -5.6%	x	-8.8%	x	x	7.5%	x	26.3%
- O=S1(=O)CC2(N3CCOCC3)CCCCC21 (stereo not given)
→ -3.6%	3.6%	0.4%	2.0%	1.7%	-1.1%	-0.6%	7.2%
- Cn1c(=O)c2c(ncn2CC(=O)N/N=C/C(Cl)=C/c2ccccc2)n(C)c1=O
→ u	u	1.8%	-18.8%	-9.1%	5.5%	-23.7%	0.0%
- CCOC(=O)c1ccccc1NC(=O)CSc1nc2ccccc2c(=O)n1CCCN1CCOCC1
→ 10.4%	x	x	u	x	11.1%	u	-65.5%
- COc1cc(OCc2ccccc2)c(C(=O)/C=C/c2ccc3c(c2)OCO3)c(OC)c1OC
→ x	x	x	u	x	4.9%	u	u
- O=C(O)c1cc(Cl)c(Cl)cc1C(=O)N(Cc1ccccc1)Cc1ccccc1
→ 1.9%	x	-0.2%	x	x	-5.0%	x	10.7%
- COCCCNC(=O)Cn1c(=O)n(Cc2ccc(C(=O)NCCc3ccc(OC)c(OC)c3)cc2)c(=O)c2ccccc21
→ 3.6%	x	x	-4.1%	x	0.1%	-25.3%[46.1 µM]	-3.3%
- Cc1ccc(NC(=O)CC2SC(=NCC3CCCO3)NC2=O)cc1Cl (stereo not given)
→ 23.2%	-5.1%	8.2%	12.6%	0.6%	-0.4%	8.9%	0.0%
- CCCCOCCCNc1ncnc2c1[nH]c1ccccc12
→ -8.8%	-29.1%	-21.9%	u	u	-8.9%	5.17µM*	11.2µM*
- CCOC(=O)c1sc2nc3c(SCCC#N)cc(C(=O)c4cc(F)ccc4O)cn3c(=O)c2c1C
→ 9.3%	u	22.1%	7.6%	-2.9%	0.9%	-22.6%	-19.1%
- CCc1ccc(CNC(=O)CCS(=O)(=O)Cc2ccccc2F)cc1
→ -0.4%	x	8.7%	9.5%[46.1 µM]	x	3.5%	-20.5%[46.1 µM]	-0.4%
- Cn1nc(C(C)(C)C)c([N+](=O)[O-])c1C(N)=O
→ -0.2%	x	-0.6%	10.6%[46.1 µM]	x	-9.7%	23.9%[46.1 µM]	-14.8%
- CC1CN(C(=O)CCC(=O)NCc2cccnc2)c2ccccc2O1 (stereo not given)
→ 6.3%	x	-10.0%	x	x	-7.0%	x	0.0%
- CCOCCCNC(=O)c1ccc(-n2c(-c3ccccc3)cc3c2CCCCC3)cc1
→ x	u	x	-8.5%[46.1 µM]	-4.2%	x	x	25.4%
- CCCCNC(=O)CCn1c(=O)c2ccccc2n(CC(=O)Nc2ccccc2OCC)c1=O
→ 1.4%	0.0%	4.6%	u	-4.2%	5.1%	22.3%&22.3%[46.1 µM]	-11.7%
- CCC(=O)N(Cc1cc(=O)[nH]c2ccccc12)c1ccc(C)cc1
→ 0.1%	x	0.0%	-7.5%	x	3.9%	-20.6%	-9.9%
- CC(=O)Nc1ccc2c(c1)OCO2
→ 0.4%	x	x	-11.5%[46.1 µM]	x	4.5%	-18.6%[46.1 µM]	-2.4%
- COc1cc(NS(=O)(=O)c2ccc(NC(=S)NC(=O)CC(C)C)cc2)nc(OC)n1
→ 4.3%	-14.1%	16.9%	8.0%	-12.4%	-8.6%	-16.2%[46.1 µM]	94.1%[activator]
- COC(=O)c1sccc1NC(=O)Nc1cc(C)ccc1OC
→ -5.8%	x	-18.6%	9.5%[46.1 µM]	x	1.4%	2.2%[46.1 µM]	-22.1%
- CCOC(=O)c1c(C)n(C)c2ccc(OC(C)=O)cc12
→ -28.9%	6.7%	-3.7%	15.8%	-5.0%	-10.1%	26.2%[46.1 µM]	-11.2%
- COc1ccc(Nc2nc(N)nc(C(F)(F)F)n2)c(OC)c1
→ -2.0%	-10.3%	-6.0%	10.5%	-2.8%	-4.1%	-0.7%	23.4%
- O=C(NC12CC3CC(CC(C3)C1)C2)c1cccnc1Cl
→ 4.3%	x	18.7%	x	x	13.3%	x	-6.3%
- Cc1ccccc1N1CCN(S(=O)(=O)c2ccc3oc(=O)ccc3c2)CC1
→ -18.7%	-5.1%	-30.3%	-6.7%	-0.8%	3.8%	-12.0%[46.1 µM]	u
- O=C(CCNS(=O)(=O)c1ccccc1)N1CCCC1
→ -6.8%	x	10.8%	1.5%[46.1 µM]	x	-1.6%	0.2%[46.1 µM]	-17.8%
- CC1(C)CC(=O)C(=Cc2cn(CCC#N)nc2-c2ccc(F)cc2)C(=O)C1
→ u	15.1%	4.1%	-15.5%	0.0%	17.6%	-23.0%	u
- CN(CC(=O)N1CCCCCC1)S(=O)(=O)c1ccc(Br)cc1
→ 2.7%	x	-2.1%	x	x	12.9%	x	13.7%
- O=C(Nc1ccc(Cl)cc1C(=O)c1ccccc1)c1ccccc1Br
→ x	-3.4%	x	u	-4.5%	x	x	7.3%
- CCCCOc1ccc(C(=O)N2CCC(C)CC2)cc1
→ -1.3%	9.3%	-7.8%	u	0.2%	1.1%	29.5%	40.2%[activator]
- CCOc1ccc(S(=O)(=O)Nc2ccc(O)c(Sc3ncn[nH]3)c2)cc1
→ -17.3%	-11.5%	18.2%	-3.1%	-2.1%	1.1%	7.2%	-22.8%
- CCCCc1ccc(NC(=O)C(C)CC)cc1 (stereo not given)
→ -1.8%	x	0.5%	-10.5%[46.1 µM]	x	6.0%	6.4%[46.1 µM]	48.6%[activator]
- Cc1noc(C)c1COc1ccccc1C(=O)NC1CCC(C)CC1 (stereo not given)
→ -8.0%	x	-13.1%	x	x	-10.0%	x	4.5%
- O=C(Nc1cccc(Cl)c1)N1C[C@H]2C[C@@H](C1)c1cccc(=O)n1C2
→ 3.3%	x	-4.5%	x	x	2.8%	x	-9.4%
- CC1(C)C(c2cccs2)=[N+]([O-])C2(CCCCC2=O)N1O (stereo not given)
→ -2.0%	x	10.6%	9.7%	x	2.6%	22.7%[46.1 µM]	-0.6%
- CCOC(=O)c1ccc(Nc2nn3c(=O)c4ccccc4nc3s2)cc1
→ x	-9.7%	x	u	2.1%	x	x	9.0%
- CCC(=O)N1CCn2c1nc1ccccc12
→ -0.8%	-1.7%	1.2%	2.9%	2.9%	-0.9%	u	23.6%
- O=C(CSc1ccc2nnc(-c3cccs3)n2n1)N1CCCC1
→ 3.1%	x	x	1.2%	x	26.9%	5.1%[46.1 µM]	8.7%
- NC(=S)N/N=C/c1ccc2ccccc2c1
→ 5.62µM*	0.794µM*	12.4%	7.9%	2.24µM*	3.4%	u	5.7%
- Fc1ccc(-c2csc(N3CCC(c4ccccc4)C3)n2)cc1 (stereo not given)
→ 0.8%	-7.5%	u	u	3.8%	12.9%	u	17.9%
